# Rango complex inh: prevents formation of the Rango-importin beta complex. Q14974. Potency, µM (highest dose often 92.2 µM), for the others: top-dose inhibition of complex formation. 0.031% of 340,000 active. Rango CFP/YFP FRET sensor + importin beta, 45 min; active = rising FRET ratio curve, often small or poorly fitted; inconclusive = mostly compound fluorescence or quenching in the first reads; inactive = flat curves in all reads;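 also: potency is read from the fitted curve at half-maximal effect; 0% = DMSO wells and 100% = buffer wells lacking importin beta; nearly all actives have a fitted effect of over 15% in size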
#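 FRET biosensor (snurportin 1 IBB flanked by EYFP and cerulean), 50 nM, with compound 5 min, then 0.125 microM importin beta in PBS, 1 mM DTT, 0.02% Tween-20, 0.1% BSA. CFP/YFP ratio read after 45 min at room temperature; pre-read flags interference.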
# Rango dissoc inh: prevents RanGTP from dissociating the Rango-importin beta complex; Biochemical FRET Rango-importin beta, RanGTP-induced dissociation; Potency, µM (titrated, usually from 46.1 µM), for the others: at the highest dose activity change, negative = inhibition; 0.071% of 340,000 active; AID 540253; active means falling FRET ratio curve, often poorly fitted, with flat reads before Ran was added; inconclusive means other falling curves, or compound fluorescence or quenching; inactive means flat or rising ratio curve;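 also: potency is read from the fitted curve at half-maximal effect; % of control where 0% means no effect; nearly all actives have a fitted effect of over 45% in size; -100% = wells without RanGTP and RCC1; the record marks most hits as doubtful in a second field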
#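 Quantitative HTS using a FRET biosensor: 0.1 uM Rango, 0.25 uM importin beta, 0.6 uM Ran, 2 mM GTP, 0.2 uM RCC1 final, PBS with DTT, Tween-20 and BSA. Post-read taken 45 min after Ran addition.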
# miR-21 FLuc: raises the signal of a miR-21 reporter. 340,000 tested, under 10 active. Potency, µM (top dose mostly 38.3 µM), for the others: at the highest dose reporter change, positive = more light. HeLa miR-21 FLuc reporter, luciferase, 48 h. AID 2288; active = well fitted rising curve with a large enough effect; inconclusive = small, poorly fitted or top-dose-only effect; inactive = no such curve, though single readings can be large or run the other way;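 also: % of control where 0% means no effect; miR-21 action dims this reporter so a rising signal means less miR-21 action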
#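 HeLa cells endogenously expressing miR-21, stably carrying CMV-driven firefly luciferase with a downstream miR-21 binding site, 2000 cells/well. Titrations up to approximately 40 uM, 48 hours; luciferase luminescence read.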
# GLA inh pH 4.5: alpha-galactosidase A (human) inhibition, pH 4.5; purified enzyme, 4-MU-alpha-Gal fluorescence, pH 4.5; activity change, negative = inhibition, % at 105 µM; 230,000 tested, under 10 active; AID 1467; inconclusive = small, poorly fitted or top-dose-only inhibition, or a rising curve; inactive = flat fitted curve, though single readings scatter; no compound was filed as active;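 also: 0% = full activity with enzyme and -100% = basal without enzyme; dose as in the result columns while the protocol names 77 µM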
# Target sequence (P06280 whole entry, looked up): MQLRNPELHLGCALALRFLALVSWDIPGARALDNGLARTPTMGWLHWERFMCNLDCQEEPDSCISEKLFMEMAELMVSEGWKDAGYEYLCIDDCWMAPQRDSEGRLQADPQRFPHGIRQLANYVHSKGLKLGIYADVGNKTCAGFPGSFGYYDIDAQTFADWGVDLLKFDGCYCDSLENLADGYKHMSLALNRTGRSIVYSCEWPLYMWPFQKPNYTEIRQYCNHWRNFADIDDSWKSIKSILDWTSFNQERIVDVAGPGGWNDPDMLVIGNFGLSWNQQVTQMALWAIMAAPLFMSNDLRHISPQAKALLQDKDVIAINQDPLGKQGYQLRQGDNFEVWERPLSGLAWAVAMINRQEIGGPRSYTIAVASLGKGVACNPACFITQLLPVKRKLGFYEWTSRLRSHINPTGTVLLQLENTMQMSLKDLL
# The depositor's hits bear a star; ? = inconclusive; . = not tested or not shown; & = joins results of further samples; [ ] = dose if it differs, or a comment.
Rango complex inh	Rango dissoc inh	miR-21 FLuc	GLA inh pH 4.5	SMILES
-2.5%	13%	-34%	.	Cc1csc(N/N=C/c2ccc([N+](=O)[O-])cc2)n1
?	-3%	-32%	.	COc1ccc(/C(C)=N/Nc2nc(C)c(C(C)=O)s2)cc1
-1.9%	2%	4%	5	Cc1ccccc1Nc1c(F)c(F)c(F)c(F)c1C(=O)O
-3.5%	8%	-1%	2	O=C(c1nn(-c2ccccc2)c(=O)c2ccccc12)N1CCN(c2ncccn2)CC1
0.3%	11%	-25%	10	Nc1ccc(NC(=O)c2ccco2)c(Cl)c1
-1.1%	-7%	.	.	Cc1ccc(CSCC(=O)N(C)CC(=O)Nc2ccccc2Cl)cc1
2.4%	-13%	.	.	CCC(C)N(C(=O)COC(=O)CSc1ccc(C)c(C)c1)C1CCS(=O)(=O)C1 (stereo not drawn)
3.2%	-6%	-49%	-4	O=C(COc1cccc2cccnc12)N1CCc2ccccc21
1.5%	3%	-21%	.	CCC(=O)NC1=C(Nc2ccc(N)cc2)C(=O)c2ccccc2C1=O
-1.0%	11%	.	.	Cc1cn(CC(=O)NCC(C)c2ccccc2)c(=O)[nH]c1=O (stereo not drawn)
?	8%	0%	7	CCC(C)(C)NC(=O)c1cc(C(=O)OC)cc([N+](=O)[O-])c1
1.5%	9%	.	.	COc1ccc(NC(=O)Cn2nc(C(=O)O)c3ccccc3c2=O)cc1S(=O)(=O)N1CCCCC1
2.9%	-8%	-6%	4	Cc1cc(SCC#N)nc2ccccc12
1.9%	1%	.	.	COc1ccc(Cl)cc1NC(=O)CSc1cccc[n+]1[O-]
0.3%	10%	3%	2	CC1CCN(c2nnc(NC(=O)Cn3c(=O)oc4ccccc43)s2)CC1
-3.7%	-6%	-15%	.	NC(=S)N/N=C/c1ccccc1OC(=O)c1cc2ccccc2oc1=O
0.6%	-6%	1%	1	O=C(C(=O)N1CCc2ccccc2C1)c1cn(CC(=O)N2CCCC2)c2ccccc12
0.2%	-1%	-7%	-2	Cc1ccc(SCCC(=O)NCCSCc2ccccc2C)cc1
0.3%	8%	-1%	.	CCn1c(SCC(=O)NCC2CCCO2)nc2c(c1=O)SCC2 (stereo not drawn)
-4.2%	0%	2%	-5	CC(C)(C)CC(=O)Nc1ccccc1N1CCN(c2ccccc2)CC1
.	.	10%	-12	O=C(C1CCN(S(=O)(=O)c2cccc3cccnc23)CC1)N1CC=C(c2ccccc2)CC1
0.2%	1%	2%	.	CC(=O)N1c2ccc(S(=O)(=O)NCc3ccco3)cc2CC1C (stereo not drawn)
?	8%	0%	4	CC(NC(=O)NC1CCCCC1)C(c1cccs1)N1CCN(C)CC1 (stereo not drawn)
0.5%	-11%	-9%	-8	COc1cc(C(=O)Nc2ccc3c(c2)Cc2ccccc2-3)cc(OC)c1OC
-0.4%	5%	-11%	-3	Cc1c(C(=O)NCc2ccccc2)oc2ccc(S(=O)(=O)N3CCCC3)cc12
4.5%	11%	-71%	-8	CCc1cc2c(SCC(=O)c3ccccc3)ncnc2s1
2.8%	11%	-10%	3	Nc1c(S(=O)(=O)c2ccccc2)cnc2c(-c3ccc(F)cc3)cnn12
5.7%	-4%	1%	.	COc1ccc(CC(=O)N(C)Cc2ccc(C(C)(C)C)cc2)cc1S(=O)(=O)N1CCOCC1
-1.7%	0%	4%	.	COCCn1c(SCC(=O)N2CCCCC2)nc2c(c1=O)SCC2
?	-2%	.	.	COCCN(C(=O)CC1CCCC1)c1c(N)n(CC(C)C)c(=O)[nH]c1=O

# Some entries already given with just GLA inh pH 4.5 and Rango dissoc inh.
mol	GLA inh pH 4.5	Rango dissoc inh
COc1cc(C(=O)Nc2ccc3c(c2)Cc2ccccc2-3)cc(OC)c1OC	-8	-11%
Cc1c(C(=O)NCc2ccccc2)oc2ccc(S(=O)(=O)N3CCCC3)cc12	-3	5%
CCc1cc2c(SCC(=O)c3ccccc3)ncnc2s1	-8	11%
Nc1c(S(=O)(=O)c2ccccc2)cnc2c(-c3ccc(F)cc3)cnn12	3	11%
COc1ccc(CC(=O)N(C)Cc2ccc(C(C)(C)C)cc2)cc1S(=O)(=O)N1CCOCC1	.	-4%
COCCn1c(SCC(=O)N2CCCCC2)nc2c(c1=O)SCC2	.	0%
COCCN(C(=O)CC1CCCC1)c1c(N)n(CC(C)C)c(=O)[nH]c1=O	.	-2%

# Next compounds
Rango complex inh	Rango dissoc inh	miR-21 FLuc	GLA inh pH 4.5	SMILES
?	11%	0%	4	CCN(CC)C(=O)CSc1nc2c(sc(=S)n2Cc2ccco2)c(=O)n1-c1ccccc1
6.5%	-16%	-3%	.	O=C(NNS(=O)(=O)c1ccccc1)c1cccc(F)c1
2.6%	-8%	-18%	6	COC(=O)c1cccc(NC(=S)NCc2ccco2)c1
7.2%	7%	3%	-2	CC(=O)Nc1c(F)cc(Br)cc1F
-4.0%	0%	.	.	O=C1c2cccc(Cl)c2C(=O)N1c1ccccn1
6.2%	22%	-36%	-6	Cc1ccc(N(C)C(=O)c2ccc3c(Cl)c4c(nc3c2)CCC4)cc1C
0.7%	32%	-9%	3	CCOc1ccc(CCNC(=O)C2CCN(S(=O)(=O)N3CCC(C)CC3)CC2)cc1OCC
-5.5%	-24%	-1%	4	O=C(NCCN1CCCCCC1)c1ccc(CS(=O)(=O)c2ccc(Br)cc2)o1
0.2%	2%	-8%	21	N#Cc1nn(-c2ccccc2)nc1N1CCCCC1
0.6%	-10%	-1%	-4	Nn1c(SCC(=O)NC(=O)NCc2ccco2)nnc1-c1ccc(OC(F)F)cc1
5.1%	14%	-40%	-2	O=C(NCc1cccs1)Nc1ccc(Cl)cc1
-2.4%	5%	.	.	Cc1ccc(S(=O)(=O)NCCC(=O)N2CCCCCC2)cc1
2.8%	1%	-4%	0	O=C(NCCCn1ccnc1)C(=O)NCC1OCCN1S(=O)(=O)c1cc(F)ccc1F (stereo not drawn)
-2.0%	-12%	3%	.	COc1ccc(S(=O)(=O)N2CCN(C(=O)Nc3ccccc3OC)CC2)cc1
-0.4%	-2%	-5%	7	NC(=O)CC(NC(=O)Cc1cccc2ccccc12)c1ccc(NC2CCCCC2)c([N+](=O)[O-])c1 (stereo not drawn)
-0.3%	11%	-26%	7	Cc1ccc(C(=O)COc2ccc3ccc(=O)oc3c2)cc1
-1.2%	8%	.	.	CCNC(=O)NC(=O)COC(=O)c1cccc(S(=O)(=O)N2CC3(C)CC2CC(C)(C)C3)c1 (stereo not drawn)
-0.8%	1%	-2%	4	CC(C)CNC(=O)c1nc(-c2ccccc2)n(-c2ccccc2)n1
4.9%	-1%	-5%	0	CCc1c(C)sc(NC(=O)c2cnn3cccnc23)c1C#N
-5.0%	-18%	-6%	5	Cc1ccc(S(=O)(=O)N2CCCC(C(=O)NCCCN3CCCCC3C)C2)cc1 (stereo not drawn)
-2.2%	1%	-10%	5	COc1ccccc1OC1OC2COC(c3ccco3)OC2C(O)C1NC(C)=O (stereo not drawn)
-4.0%	31%	1%	3	COc1cccc(CN2CCC(C(=O)N3CCN(c4ccccc4F)CC3)CC2)c1
-11%	-1%	16%	.	Cc1ccc(S(=O)(=O)c2nc(S(C)(=O)=O)sc2N2CCN(C)CC2)cc1
-0.6%	-13%	?	.	O=C(CCl)Nc1c2c(nn1-c1ccccc1)CSC2
1.9%	25%	-59%	4	O=C(CCc1nnc(CCCc2ccccc2)o1)NC(C1CC1)C1CC1
-2.8%	-5%	.	-19	COc1ccc(C2/C=C\CN(S(=O)(=O)c3ccc(C)cc3)CC(=O)N2Cc2cccc(F)c2)cc1 (stereo not drawn)
-3.9%	1%	-17%	-6	Cn1ccnc1C(=O)c1cccc([N+](=O)[O-])c1
-0.7%	-11%	-3%	9	CC(=O)Nc1ccc(S(=O)(=O)N2CCN(Cc3cccs3)CC2)cc1
-0.2%	-1%	.	.	O=C(c1ccc(F)cc1)N1CCC(C(=O)N2CCN(S(=O)(=O)c3cccc(Cl)c3)CC2)CC1
3.9%	10%	-5%	2	O=C(COC(=O)/C=C/c1ccc(F)cc1)NCc1ccco1

# Reprinted from the entries so far (2 entries):
Rango complex inh	Rango dissoc inh	miR-21 FLuc	GLA inh pH 4.5	SMILES
?	11%	0%	4	CCN(CC)C(=O)CSc1nc2c(sc(=S)n2Cc2ccco2)c(=O)n1-c1ccccc1
6.5%	-16%	-3%	.	O=C(NNS(=O)(=O)c1ccccc1)c1cccc(F)c1

# Further records
Rango complex inh	Rango dissoc inh	miR-21 FLuc	GLA inh pH 4.5	SMILES
2.0%	20%	.	.	CC(C)CNC(=O)/C=C/C=C/CCCC/C=C/c1ccc2c(c1)OCO2
-1.1%	4%	0%	.	COCC(=O)N1CCC(Oc2ccc(C(=O)NCc3cc(C)n(C)n3)cc2)CC1
0.9%	-2%	-5%	10	O=C(Cn1nc(-c2ccc(Cl)cc2)c2ccccc2c1=O)NCC1CCCO1 (stereo not drawn)
-3.6%	-11%	-17%	3	COc1ccc2c(C(=O)CN3CC(C)OC(C)C3)c[nH]c2c1 (stereo not drawn)
-2.8%	11%	-4%	-1	CC(C)CCOc1ccccc1C(N)=O
-0.1%	9%	-7%	-10	COc1ccc(C2c3ccc4ccccc4c3Oc3ncn4nc(Cc5ccccc5)nc4c32)cc1OC (stereo not drawn)
.	.	-5%	6	CN(C)c1ccc(/C=C2/C(=O)N(c3ccc([N+](=O)[O-])cc3)N=C2N2CCOCC2)cc1
1.2%	1%	-2%	1	O=C(CCCNC(=O)/C(=C\c1ccccc1F)NC(=O)c1ccccc1)OCc1ccccc1
0.0%	9%	23%	.	O=C(NCC1CCN(Cc2ccc(F)cc2)CC1)C1CCCN(c2ncnc3c2nc2n3CCCCC2)C1 (stereo not drawn)
3.9%	-2%	-3%	-5	CCC1(C)COC2(OC1)C(=O)Nc1ccccc12 (stereo not drawn)
0.3%	24%	-6%	3	C=CCNC(=S)Nc1sc2c(c1C(=O)OCC)CC(C)(CC)OC2 (stereo not drawn)
.	.	-60%&12%	-5	COc1cccc(N2CCN(C(=O)c3ccc4nc(N5CCC(C)CC5)sc4c3)CC2)c1
-3.8%	11%	0%	8	Cc1cc(C)c(NC(=O)Nc2ccccc2C)c(Cl)c1
?	-42%	6%	.	CCN(CC)S(=O)(=O)c1ccc2c(c1)NC(=O)C1CCCN21 (stereo not drawn)
4.6%	1%	-1%	.	NC(=O)CC(NC(=O)c1cccc(Br)c1)c1ccc(N2CCC(N3CCCCC3)CC2)c([N+](=O)[O-])c1 (stereo not drawn)
0.3%	32%	5%	-1	COc1cccc(NC2=C(Cl)C(=O)OC2OC(=O)c2ccco2)c1 (stereo not drawn)
1.4%	-3%	-4%	-12	CCOc1ccccc1NC(=O)COC(=O)CSc1ccc(Cl)cc1
?	18%	.	.	O=C(NC1CCCCCCC1)c1ccc(Br)cc1
-5.8%	-10%	3%	4	COc1ccccc1NC(=O)CSc1ccc2nnc(-c3ccc(C)cc3)n2n1
0.2%	2%	0%	.	CN(C)CCCn1c(SCC(=O)Nc2nccs2)nnc1-c1ccncc1
5.7%	11%	-5%	-4	CC1(C)CC(NC(=O)Cc2ccccc2[N+](=O)[O-])CC(C)(C)N1
1.2%	-7%	-5%	-1	Cc1ccccc1NC(=O)C1CCCN1S(=O)(=O)c1ccc2c(c1)n(C)c(=O)c(=O)n2C (stereo not drawn)
-1.6%	0%	-2%	.	C/C(N)=C(/C#N)C(=O)COC(=O)C1CSC2(c3ccc(F)cc3)CCC(=O)N12 (stereo not drawn)
1.9%	1%	-7%	8	COc1ccc(-c2[nH]ncc2-c2cnc(C)s2)c(O)c1
2.3%	13%	2%	-14[21.1 µM]	CCN(CC)C(=O)c1ccccc1NC(=O)c1ccccc1
2.2%	9%	-12%	1	O=C(CSc1nnnn1C1CCCCC1)N1CCCC1
.	.	-31%	5	CCOCC(=O)Nc1cc(C(=O)NCCC(C)C)ccc1Cl
0.0%	4%	.	.	Cc1nn(C)c(C)c1NC(=O)CSc1nc(Cc2ccccc2)nc2c1cnn2-c1ccccc1
0.8%	9%	-43%	.	O=C(NCC(=O)N1CCCCC1)c1ccc2ccccc2c1
5.7%	33%	?	-11	Cc1ccc(NS(=O)(=O)c2cc([N+](=O)[O-])ccc2NNC(=S)Nc2cc(C)ccc2C)c(C)c1
5.8%	8%	1%	-5	CCc1nc(C)ccc1OC(=O)C12CC3CC(CC(C3)C1)C2
-2.5%	-4%	-16%	-10	CCOC(=O)c1cccc(NC(=O)CSc2nnnn2C)c1

# Not all compounds are listed; count on the stated rates, not on these rows.
